Screening data as filed in PubChem.
GLA inh pH 4.5: qHTS Assay for Inhibitors of Human alpha-Galactosidase at pH 4.5; purified enzyme, 4-MU-alpha-Gal fluorescence, pH 4.5; activity change, negative = inhibition, % at 105 µM; 230,000 tested, under 10 active; AID 1467, 2008; inconclusive = small, poorly fitted or top-dose-only inhibition, or a rising curve; inactive = flat fitted curve, though single readings scatter; no compound was filed as active;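 also: 0% = full activity with enzyme and -100% = basal without enzyme; dose as in the result columns while the protocol names 77 µM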
Rango release inh: qHTS Assay for Inhibitors of RanGTP induced Rango (Ran-regulated importin-beta cargo) - Importin beta complex dissociation. Biochemical FRET Rango-importin beta, RanGTP-induced dissociation. actives 0.071% (n = 340,000). Snurportin-1 (Homo sapiens) + GTP-binding nuclear protein Ran (Homo sapiens) + Importin …. Potency, µM (top dose mostly 46.1 µM), without a hit: at the highest dose activity change, negative = inhibition; active means falling FRET ratio curve, often poorly fitted, with flat reads before Ran was added; inconclusive means other falling curves, or compound fluorescence or quenching; inactive means flat or rising ratio curve;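 also: potency is read from the fitted curve at half-maximal effect; % of control where 0% means no effect; nearly all actives have a fitted effect of over 45% in size; -100% = wells without RanGTP and RCC1; the record marks most hits as doubtful in a second field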
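Rango FRET biosensor (snurportin-1 IBB flanked by N-terminal EYFP and C-terminal CFP10) at 0.1 uM, with 0.25 uM importin beta in PBS, 1mM DTT, 0.02% Tween-20, 0.1% BSA. 0.6 uM Ran, 2mM GTP and 0.2 uM RCC1 were then added for 45 min at room temperature. Inhibition read as loss of FRET rise.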
Rango complex inh: qHTS Assay for Inhibitors of Rango (Ran-regulated importin-beta cargo) - Importin beta complex formation | Rango CFP/YFP FRET sensor + importin beta, 45 min | Potency, µM (titrated, usually from 92.2 µM), for inactives: top-dose inhibition of complex formation | actives 0.031% (n = 340,000) | AID 540263, 2011; active = rising FRET ratio curve, often small or poorly fitted; inconclusive = mostly compound fluorescence or quenching in the first reads; inactive = flat curves in all reads;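 also: potency is read from the fitted curve at half-maximal effect; 0% = DMSO wells and 100% = buffer wells lacking importin beta; nearly all actives have a fitted effect of over 15% in size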
Target sequence (Q14974 whole entry, looked up): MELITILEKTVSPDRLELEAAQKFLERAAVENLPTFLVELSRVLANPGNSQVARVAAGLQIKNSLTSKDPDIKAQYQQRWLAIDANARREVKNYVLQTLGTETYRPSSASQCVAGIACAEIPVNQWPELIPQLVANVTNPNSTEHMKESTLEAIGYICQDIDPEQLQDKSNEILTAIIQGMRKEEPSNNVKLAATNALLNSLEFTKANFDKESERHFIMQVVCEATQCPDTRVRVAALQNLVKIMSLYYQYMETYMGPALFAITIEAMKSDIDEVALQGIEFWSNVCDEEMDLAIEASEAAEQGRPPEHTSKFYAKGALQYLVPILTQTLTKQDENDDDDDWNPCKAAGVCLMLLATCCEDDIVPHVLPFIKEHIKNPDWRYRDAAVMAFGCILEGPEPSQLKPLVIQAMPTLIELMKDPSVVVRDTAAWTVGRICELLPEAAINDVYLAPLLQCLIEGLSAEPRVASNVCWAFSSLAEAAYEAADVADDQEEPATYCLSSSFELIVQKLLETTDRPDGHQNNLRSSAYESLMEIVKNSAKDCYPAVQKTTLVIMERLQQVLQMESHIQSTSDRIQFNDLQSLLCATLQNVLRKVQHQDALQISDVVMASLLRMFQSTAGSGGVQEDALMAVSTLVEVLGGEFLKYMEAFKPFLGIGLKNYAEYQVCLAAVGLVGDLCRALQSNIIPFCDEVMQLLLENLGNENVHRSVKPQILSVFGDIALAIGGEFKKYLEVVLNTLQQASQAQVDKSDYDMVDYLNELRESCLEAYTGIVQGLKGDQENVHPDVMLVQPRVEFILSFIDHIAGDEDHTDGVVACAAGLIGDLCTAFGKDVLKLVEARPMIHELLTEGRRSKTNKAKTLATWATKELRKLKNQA
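FRET biosensor Rango (snurportin 1 IBB between N-terminal EYFP and C-terminal Cerulean), 50 nM in PBS/1 mM DTT/0.02% Tween-20/0.1% BSA, preincubated 5 min RT with compound; 0.125 microM importin beta added, 45 min RT, CFP/YFP FRET ratio read.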
miR-21 reporter: qHTS Assay for Modulators of miRNAs and/orActivators of miR-21; Potency, µM (titrated, usually from 38.3 µM), for the others: at the highest dose reporter change, positive = more light; 340,000 tested, under 10 active; AID 2288, 2010; HeLa miR-21 FLuc reporter, luciferase, 48 h; active = well fitted rising curve with a large enough effect; inconclusive = small, poorly fitted or top-dose-only effect; inactive = no such curve, though single readings can be large or run the other way;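 also: % of control where 0% means no effect; miR-21 action dims this reporter so a rising signal means less miR-21 action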
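Compounds were titrated across several concentrations (up to approximately 40 uM) and incubated 48 hours with HeLa miR-21-FLuc reporter cells (miR-21 target sequence downstream of FLuc, endogenous miR-21). Readout was firefly luciferase luminescence after lytic detection reagent.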
* marks the source's active call; other numbers are inactive results; ? = inconclusive; . = not tested or not shown; & = joins results of further samples. Not all compounds are listed (hit frequency here may not be typical).

GLA inh pH 4.5	Rango release inh	Rango complex inh	miR-21 reporter	structure
.	1.4%	0.2%	-6.1%	COc1ccc(OC)c(S(=O)(=O)N2CCCC(C(=O)NCCc3ccccc3)C2)c1 (stereo not given)
10.5	-2.6%	-0.1%	-3.1%	COC(=O)C1=C(C)N(C)C(=O)NC1c1cc(Cl)c(O)c(OC)c1 (stereo not given)
.	-6.6%	-1.5%	1.7%	CC(=O)c1ccc(S(=O)(=O)NCc2cccnc2)cc1
.	-7.1%	0.4%	2.0%	Cc1ccnc(NC(=O)Cn2c(=O)oc3cc(S(=O)(=O)N4CCCC4)ccc32)c1
.	10.4%	-3.5%	.	COc1ccc2nc(N3C(=O)C(O)=C(C(=O)c4ccco4)C3c3ccco3)sc2c1 (stereo not given)
-8.3	-21.3%	0.1%	-0.4%	CCOC(=O)c1oc2c(O)c(O)ccc2c(=O)c1-c1nncn1-c1ccccc1
-2.7	?	4.3%	-2.8%	CC(C)(C)C(=O)COC(=O)c1cc(-c2ccncc2)nc2ccccc12
0.7	0.1%	-3.3%	-1.7%	CCCCC(CC)C(=O)Nc1ccc(Cl)cn1 (stereo not given)
.	-1.8%	-1.2%	-0.5%	COc1ccc(C2C(C#N)=C(N)N(N(C)C)C3=C2C(=O)CCC3)cc1 (stereo not given)
.	-2.0%	-0.9%	.	CCOC(=O)c1ccc(S(=O)(=O)N2CCC(C(=O)NCC3CCCCC3)CC2)cc1
7.0	19.9%	-0.9%	5.2%	CCCc1cc(=O)oc2cc(OCC(=O)Nc3ccc4c(c3)OCCO4)ccc12
-0.5	-1.6%	0.7%	3.4%	COc1ccc([N+](=O)[O-])cc1N(CC(=O)N1CCCCC1)S(C)(=O)=O
1.9	8.8%	0.0%	-10.1%	CN(CCN1CCOCC1)Cc1nc(-c2cccs2)no1
-3.0	1.1%	-2.0%	-0.4%	O=C(c1cccnc1)c1cccnc1
.	-0.2%	0.0%	-6.9%	Cc1ccccc1OCC(=O)Nc1ccc(S(=O)(=O)Nc2onc(C)c2C)cc1
.	-16.8%	-1.2%	-9.2%	O=C(c1ccco1)N1N=C(c2ccc(Cl)cc2)CC1c1ccco1 (stereo not given)
-6.8	-11.4%	-0.9%	1.9%	O=C(Nc1ccccn1)c1cccc(S(=O)(=O)N2CCOCC2)c1
.	8.9%	-0.7%	-4.1%	CCOc1ccc(S(=O)(=O)N2CCC(c3ccccc3)CC2)cc1C(=O)O
.	-6.0%	-1.4%	-8.0%	COc1cc(C(=O)NC(=S)Nc2nc(-c3ccc(F)cc3)cs2)cc(OC)c1OC
15.9	8.7%	7.6%	1.5%	COCN(C#N)c1nc(OC)nc(OC)n1
.	0.4%	-0.2%	.	CCOc1ccc(NC(=O)CN2C(=O)NC(CCc3ccccc3)C2=O)cc1OCC (stereo not given)
0.3	-5.9%	-3.4%	-6.3%	CC(C)N(c1ccccc1)c1ccc(NC(=S)NCCN(C)C)cc1
.	1.0%	1.8%	.	CCC1(c2ccccc2)NC(=O)N(CC(=O)N2CCc3ccccc32)C1=O (stereo not given)
-10.4	0.9%	-3.6%	-7.0%	O=C(Nc1cccc(S(=O)(=O)N2CCCC2)c1)c1ccc2ccccc2n1
-0.8	-6.1%	1.9%	-2.6%	O=C(CN(C(=O)CCC(=O)Nc1nccs1)c1ccc(F)cc1)NCC1CCCO1 (stereo not given)
-19.3	-2.2%	?	9.7%	COc1cc(NC2c3ccccc3C(=O)N2Cc2ccccc2)cc(OC)c1OC (stereo not given)
.	-8.7%	?	-8.1%	CCN1CCN(c2ccc(S(=O)(=O)N3CCCCC3)cc2NC(=O)Cc2c(F)cccc2Cl)CC1
.	-0.5%	-1.0%	-2.5%	Cc1ccccc1-n1nc2c(c1NC(=O)C(C)C)CS(=O)(=O)C2
-2.5	-13.5%	-0.2%	-0.9%	O=C(c1ccc(Cl)cc1)N1CCN(c2cccc3[nH]ccc23)CC1
.	1.0%	-5.4%	.	Cc1ccccc1-c1nnc(SCC(=O)N(C)c2c(N)n(Cc3ccccc3)c(=O)[nH]c2=O)n1C
.	?	?	.	Nc1cc(Cl)ccc1C(=O)OCC(=O)NCc1cccs1
-9.2	-11.9%	?	5.5%	O=C(Cc1csc(NC(=O)c2ccccc2)n1)NO
7.8	1.9%	-8.0%	-3.8%	COc1cc(NC(=O)c2cccs2)c(C(=O)OCC(=O)c2cc(C)n(-c3ccccc3)c2C)cc1OC
5.0	-1.6%	-1.1%	-1.2%	CC(C)CC(=O)CC1(O)C(=O)Nc2ccccc21 (stereo not given)
-2.1	-8.7%	-1.3%	-1.1%	Cc1cccn2c(CNCCCOc3cccnc3)c(C(=O)N3CCOCC3)nc12
-4.1	-10.9%	-1.0%	-10.1%&-4.3%	COc1cccc(CNC(=O)Cn2nc(-c3ccc(Cl)cc3)ccc2=O)c1
4.4	-7.2%	-0.6%	-4.7%	O=C(COC(=O)Cc1ccccc1F)Nc1ccc2c(c1)OCO2
-18.0	12.0%	2.6%	-9.4%	COc1ccc(C2C(CC(=O)O)=C(O)C(=O)N2c2ccccc2)cc1 (stereo not given)
0.1	-9.4%	2.8%	19.5%	CCOc1ccc(-c2cc(CCCC(=O)NCc3ccco3)no2)cc1
.	23.3%	-1.6%	.	CCN(CC(=O)Nc1ccc(NC(C)=O)cc1)C(=O)CN1C(=O)NC(C)(c2ccc3ccccc3c2)C1=O (stereo not given)
.	0.4%	-4.3%	7.9%	O=C1CCCN1c1ccc(S(=O)(=O)NCc2ccc(F)cc2)cc1
.	1.7%	0.9%	11.5%	O=C(c1cc(Cl)nc2ccccc12)N1CCN(S(=O)(=O)c2ccccc2[N+](=O)[O-])CC1
.	0.4%	-4.6%	.	CCOC(=O)C1CCCN(C(=O)c2cccc(S(=O)(=O)N(C)c3ccc(OC)cc3)c2)C1 (stereo not given)
3.5	-18.9%	-0.2%	-49.2%	Cc1ccccc1OCC(=O)Nc1ccc2c(c1)C(=O)c1ccccc1C2=O
0.3	12.3%	-3.8%	-2.1%	COC(=O)CSC(=S)N1C(C)CCCC1C (stereo not given)
.	10.5%	4.4%	-7.7%	COc1cccc(/C=C2\SC(=S)N(CCCC(=O)Nc3ccc(C(=O)O)cc3)C2=O)c1
0.4	33.9%	0.8%	19.6%	CCc1ccc(/C=N/NC(=O)c2cc(C3CC3)nc3ccccc23)s1
-0.3	-10.9%	-4.3%	-17.8%	CCCCN(CC)C(=S)Nc1ccc2nc3n(c(=O)c2c1)CCCCC3
3.4	2.6%	-0.2%	-10.6%	NC(=O)CSc1nnc(C2CC2)n1Cc1ccccc1
-8.5	-16.4%	-3.7%	-29.3%	Cc1cc(C)n2c(SCc3ccc(C#N)cc3)nnc2n1

Next part.
GLA inh pH 4.5	Rango release inh	Rango complex inh	miR-21 reporter	structure
.	-11.8%	-4.9%	.	COc1cc(OC)c(C(=O)OCC(=O)Nc2c(C)n(C)n(-c3ccccc3)c2=O)cc1OC
4.2	22.3%	0.2%	2.4%	CC(=O)Nc1ccc(NS(=O)(=O)c2cn(C)c(=O)n(C)c2=O)cc1
.	-7.4%	-0.6%	-7.8%	CC(=O)Oc1ccc(C(=O)NCc2ccc3c(c2)OCO3)cc1
6.4	-0.4%	-1.7%	-2.5%	CCCNS(=O)(=O)c1ccc(CCC(=O)N2CCN(c3ccc(OC)cc3)CC2)cc1
12.0	-11.8%	-0.6%	4.6%	CSC1=NCCCN1C(=O)c1c(-c2ccccc2Cl)noc1C
5.8	-1.3%	0.9%	-3.8%	CC(C)(C)C1CCc2onc(C(=O)Nc3cnn(Cc4ccc(F)cc4)c3)c2C1 (stereo not given)
-2.7	-7.0%	?	-21.3%	O=C(/C=C/c1ccc(-c2ccccc2[N+](=O)[O-])o1)c1ccc(F)cc1
.	25.0%	4.2%	0.0%	CN(C)/C(=N\S(=O)(=O)c1ccccc1)c1ccccc1
.	3.9%	1.3%	.	O=[N+]([O-])c1ccc(SNc2ccccc2)c([N+](=O)[O-])c1
2.4	-19.4%	1.9%	-2.0%	COc1ccc(N2CC(NC(=O)NC(C)(C)C)CC2=O)cc1 (stereo not given)
.	?	?	.	Cc1ccc(C2=N/C(=C\c3ccc(F)cc3)C(=O)N2)cc1
1.7	3.3%	0.3%	-14.0%	O=C(Nc1ncnc2c1CCC2)C12CC3CC(CC(C3)C1)C2
-0.2	-8.8%	-0.2%	-2.3%	COc1ccc(/C=C2\S/C(=N/S(=O)(=O)c3cccs3)NC2=O)cc1
.	-1.6%	2.7%	23.3%	CC(CC(=O)N1CCN(c2ccccc2)CC1)S(=O)(=O)c1ccc2c(c1)NC(=O)CS2 (stereo not given)
-1.7	6.1%	0.6%	-2.8%	CC(Cc1ccccc1)NC(=O)C1(c2ccccc2)CCOCC1 (stereo not given)
-0.3	2.1%	-3.5%	.	O=C1CCC(c2ccc(-n3ccnc3)cc2)=NN1
-5.3	1.0%	1.0%	-8.9%	O=C1CCC(c2ccccc2)=NN1
.	6.51µM*	?	.	COc1ccc(CCNC(=O)CSc2ccc3nnc(CCNC(=O)c4ccc(C)cc4)n3n2)cc1OC
3.9	0.2%	-0.2%	-57.1%	Cc1cccc(-c2nc(C#N)c(N3CCCCCC3)o2)c1
1.0	10.9%	-1.3%	0.5%	Cc1ccc(S(=O)(=O)N2CCC(O)(c3cccnc3)CC2)cc1
0.4	-13.5%	0.4%	-0.3%	CN(CC1CCOCC1)C(=O)CC1C(=O)NCCN1Cc1cccc(Oc2ccccc2)c1 (stereo not given)
3.5	-11.4%	-2.1%	3.3%	COc1cccc(CNC(=O)CCc2nnc(C3CCCCC3)o2)c1
.	5.4%	0.1%	0.2%	CC1=C(C(N)=O)C(c2ccc(Cl)cc2)n2nc(CCCO)nc2N1 (stereo not given)
1.4	-0.4%	-0.4%	-15.8%	COc1cc(-c2nc(CN(C)C(C)c3ccncn3)c(C)o2)ccc1F (stereo not given)
-0.3	.	.	-0.8%	CC/C(=N\NC(C)=O)c1ccc(OC(F)F)cc1
-0.6	-6.7%	-1.0%	1.0%	C[N+]1(CCOS(=O)C23CC4CC(CC(C4)C2)C3)CCOCC1 (stereo not given)
4.5	4.2%	0.2%	6.6%	O=C(CSc1cn(CCNC(=O)c2cccs2)c2ccccc12)NC1CCCC1
.	?	-1.4%	-9.5%	CCC(C(=O)NC1CCCCC1)N(C(=O)c1snc(C(N)=O)c1N)c1ccc(OC)cc1OC (stereo not given)
1.9	-12.6%	-0.2%	-32.4%	CC(=O)c1cccc(NC(=O)C(Sc2ncnc3ccccc23)c2ccccc2)c1 (stereo not given)
.	10.0%	-0.5%	19.8%	CCCc1ncc(CN2CCCC(C(=O)Nc3ccc(-c4cccc(OC)c4)cc3)C2)cn1 (stereo not given)
1.3	-19.2%	0.7%	1.4%	CCN1C(=O)CC(NCc2ccc3c(c2)OCO3)C1=O (stereo not given)
1.2	-0.7%	1.1%	-0.1%	CCCCC(=O)OCC(=O)Nc1ccc(C)c(F)c1
-4.8	0.4%	-2.3%	-9.4%	Cc1cc(C)nc(N2CCC(CNC(=O)CCc3ccccc3)CC2)n1
-23.1	-11.2%	-3.8%	-7.5%	Cc1ccc(C)c(S(=O)(=O)N2CCC(c3nc4c(nnn4Cc4ccc(F)cc4)c(=O)[nH]3)CC2)c1
0.4	12.3%	-0.3%	-22.1%	COc1ccc(-c2ccc(=O)[nH]n2)cc1
-5.1	1.1%	-3.0%	-0.1%	CCOc1ccccc1C(=O)Nc1ccccc1O

One compound at a time, from the list above:
COc1ccc(-c2ccc(=O)[nH]n2)cc1 is listed as GLA inh pH 4.5: 0.4; Rango release inh: 12.3%; Rango complex inh: -0.3%; miR-21 reporter: -22.1%
COCN(C#N)c1nc(OC)nc(OC)n1 is listed as GLA inh pH 4.5: 15.9; Rango release inh: 8.7%; Rango complex inh: 7.6%; miR-21 reporter: 1.5%
